High-throughput results (PubChem BioAssay)
eIF4H FP inh = inhibitors of RNA binding by human eIF4H; AID 2012; inhibition, % at 35 µM; eIF4H fluorescence polarization binding assay; 0.94% of 290,000 active; Q15056;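 active means 50% or more with normal probe brightness, or confirmed in later tests; about a fifth of its hits are not listed in these tables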;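 further: calls also rest on retests at 20 µM and on dose response follow-up; 0% = protein and probe with vehicle and 100% = probe without protein; strong numbers were not always called active; many hits fall short of the cut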
Env fusion inh = blocks HIV Env-driven cell-cell fusion | HeLa-JRFL Env/CEM21 cell fusion, luciferase | inhibition, % at 12.3 µM | 1.1% of 360,000 active;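 active means mean replicate inhibition score of at least 50 and every replicate individually at or above 50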;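 further: 0% = plate neutral controls and 100% = maraviroc near 300 nM; one replicate is shown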
MT1-MMP act inh = blocks activation of human MT1-MMP | 0.061% of 360,000 active | GFP/RFP ratio change, % at 20 µM | AID 651647 | HT1080 RFP-PRO-GFP cells, GFP/RFP ratio fluorescence, overnight; percent of plate control window, DMSO zero;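 active means GFP/RFP ratio change of at least 30% with cell ATP level not reduced by more than half and red fluorescence within 50% of control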; further: strong numbers were not always called active
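Read-out: GFP/RFP fluorescence ratio; Test system: RFP-PRO-GFP reporter HT1080 cells; Compound dosing: single-point 20 µM compound, 1% DMSO; Times: overnight compound exposure at 37 °C.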
CSC inhib = cancer stem cell inhibition | 1.1% of 300,000 active | inhibition, % at 7.5 µM | cancer stem cell-like cells viability, luminescence | AID 2717;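 active means mean at 75% or more and at least half the replicates too; tested in HMLE shEcad cells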;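 further: 0% = median of negative and 100% = median of positive control wells; the first replicate is given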
Rce1 inh = blocks yeast Ras-converting enzyme | calls only | yeast membranes, quenched prenylated peptide cleavage fluorescence | AID 2563 | 0.27% of 290,000 active;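 active means fall in fluorescence gain of 50% or more versus controls, with final raw signal at or below 3038400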;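 further: plate controls were neutral control wells for no effect and wells lacking membranes for full effect; tested at 10 µM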
Target sequence (Q03530 whole entry, looked up): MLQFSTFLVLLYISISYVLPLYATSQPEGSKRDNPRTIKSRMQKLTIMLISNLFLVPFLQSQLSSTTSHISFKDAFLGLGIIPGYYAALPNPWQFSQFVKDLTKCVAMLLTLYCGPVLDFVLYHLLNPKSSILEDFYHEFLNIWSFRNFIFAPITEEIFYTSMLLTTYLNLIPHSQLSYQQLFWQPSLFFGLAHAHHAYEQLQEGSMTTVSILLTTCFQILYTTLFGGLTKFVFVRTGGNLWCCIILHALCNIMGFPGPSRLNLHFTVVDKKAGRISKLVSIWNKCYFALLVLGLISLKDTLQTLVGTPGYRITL
Yeast UUG start = yeast start codon fidelity modulation | S. cerevisiae UUG-firefly luciferase reporter, luminescence/redox ratio | activity score, % at 18.7 µM | 0.13% of 350,000 active | AID 602363;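 active means replicate mean at a twofold rise or more, about +100% in these data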;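 further: firefly luciferase made from a UUG start codon reports start codon fidelity; reporter light over untreated wells divided by growth signal over untreated wells; some hits fall short of that in this replicate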
PABP polyA inh = blocks human PABP binding to poly(A) RNA | P11940 | inhibition, % at 35 µM | fluorescence polarization | 1% of 290,000 active;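 active means 50% or more with normal probe brightness, or confirmed in later tests; about a fifth of its hits are not listed in these tables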;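 further: calls also rest on retests at 20 µM and on dose response follow-up; controls were probe without protein and protein plus probe with vehicle; some compounds called inactive have numbers as strong as hits; many hits fall short of the cut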
MT1-MMP act inh RFP = further read-out of MT1-MMP act inh, marked with its call; RFP signal change, %; measured here: RFP expression control read;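 0 = vehicle wells; hits needed this value within 50% of zero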
Active calls of the source: *; i = inactive; x = not tested or not shown. No enrichment for hits; any-hit rate near 3%.

SMILES | eIF4H FP inh | Env fusion inh | MT1-MMP act inh | MT1-MMP act inh RFP | CSC inhib | Rce1 inh | Yeast UUG start | PABP polyA inh
CC(=O)c1ccc(S(=O)(=O)NC2CC(=O)N(c3cccc(F)c3)C2)cc1 (stereo unspecified) | x | -6 | 1 | -5 | -6 | i | x | x
COc1cc(C)c(S(=O)(=O)N2CCOCC2)cc1C(C)C | -3 | x | -3 | -3 | -4 | i | 13 | -1
O=C(O)CSc1ncnc2c1oc1ccccc12 | -1 | x | 3 | 2 | x | i | -9 | 6
O=C1CN(C(=O)NCCC(=O)NC2CCCCC2)c2ccccc2N1 | -2 | -1 | 2 | 6 | -12 | i | -19 | -1
Nc1ccccc1NC(=O)NC(=O)c1ccccc1 | -5 | -77 | 2 | -1 | 8 | i | -16 | -3
COc1ccc(CCNC(=O)COc2ncnc3ccccc23)cc1OC | 5 | 8 | 2 | 5 | -2 | i | -6 | 14
CCN(CC)S(=O)(=O)c1ccc(N2Cc3ccccc3C2=N)cc1 | 48 | -4 | x | x | -9 | i | -7 | 1
Cc1ccc(Cn2c(CN3CCOCC3)nc3c2c(=O)n(C)c(=O)n3C)cc1 | 6 | -11 | -1 | 2 | 11 | i | 14 | 4
CC(C)NS(=O)(=O)c1ccc(OCC(=O)NC2CCCCCC2)cc1 | -9 | 1 | -4 | -1 | 0 | i | -16 | -5
Cc1[nH]c(=O)[nH]c(=O)c1N(C)C | -1 | -24 | 1 | 7 | -1 | i | x | -12
O=C(CCSc1ccccc1)Nc1ccc(S(=O)(=O)Nc2ncccn2)cc1 | 3 | 22 | 2 | 6 | -5 | i | x | -3
O=C(O)CC(c1ccc(F)cc1F)N1Cc2ccccc2C1=O (stereo unspecified) | 1 | x | -2 | 3 | -11 | i | -10 | -8
CCOC(=O)C(CCCCCCC(NC(C)=O)(C(=O)OCC)C(=O)OCC)(NC(C)=O)C(=O)OCC | -15 | 4 | -5 | -5 | -4 | i | x | -6
CC(C)SCCCCOc1ccc2ccccc2c1 | -8 | x | 10 | 0 | -8 | i | -8 | -3
CCOc1cc(C)c(S(=O)(=O)N2CCCCC2)cc1C | -14 | -5 | -2 | -6 | -8 | i | x | 2
O=C(CN1C(=O)S/C(=C\c2ccccn2)C1=O)Nc1ccccc1 | -4 | 0 | 0 | 3 | -18 | i | -5 | 6
C[C@H](CO)N1C[C@H](C)[C@H](CN(C)Cc2ccc(C(=O)O)cc2)OCc2ccccc2-c2c(n(C)c3ccccc23)C1=O | x | 7 | -1 | -3 | x | x | 15 | x
Cc1ccc(OC(C)C(=O)N=Nc2c(O)[nH]c3ccc([N+](=O)[O-])cc23)cc1 (stereo unspecified) | 14 | -397 | -1 | -1 | 46 | i | -7 | -6
CC(C)CC(N)c1csc(Nc2cc(Oc3ccccc3)ncn2)n1 (stereo unspecified) | x | 11 | -8 | -3 | x | x | -3 | x
CC(=O)c1c(C)[nH]c(C(=O)OC2CCCCC2=O)c1C (stereo unspecified) | 0 | x | -1 | -4 | 9 | i | 1 | -10

Structures above with an aryl thioether with sulfur outside any ring:
SMILES | eIF4H FP inh | Env fusion inh | MT1-MMP act inh | MT1-MMP act inh RFP | CSC inhib | Rce1 inh | Yeast UUG start | PABP polyA inh
O=C(O)CSc1ncnc2c1oc1ccccc12 | -1 | x | 3 | 2 | x | i | -9 | 6
O=C(CCSc1ccccc1)Nc1ccc(S(=O)(=O)Nc2ncccn2)cc1 | 3 | 22 | 2 | 6 | -5 | i | x | -3

Continuation.
SMILES | eIF4H FP inh | Env fusion inh | MT1-MMP act inh | MT1-MMP act inh RFP | CSC inhib | Rce1 inh | Yeast UUG start | PABP polyA inh
Cc1cccc(NC(=O)CN(C)C(=O)c2ccc3ccccc3n2)c1C | x | 0 | 1 | 2 | x | x | 1 | x
CC(C)CCn1cnc2c1c(=O)n(CC(=O)NC(N)=O)c(=O)n2Cc1ccccc1 | -2 | 5 | -3 | -1 | -2 | i | 2 | 6
Cc1cccc(C(C)C)c1NC(=O)C1CCN(S(=O)(=O)c2ccccc2)CC1 | 4 | x | -1 | -21 | -13 | i | -6 | 6
Cc1cccc(CC(=O)c2c[nH]c3ccccc23)c1 | 2 | 20 | -1 | 0 | 20 | i | -15 | -4
Cc1cc(C)n(CC(=O)NNC(=O)c2ccc(NC(=O)CC#N)cc2)n1 | x | -9 | -2 | 1 | x | x | -9 | x
CCCCCOC(=O)c1ccc(NC(=O)c2cccc(NC(=O)c3ccccc3C(=O)O)c2)cc1 | -7 | 26 | 1 | -5 | 13 | i | -9 | -1
CC(=O)Nc1ccc(S(=O)(=O)N2CC(=O)NC(=O)C2)cc1 | 2 | -9 | 1 | 4 | -14 | i | -3 | 0
Fc1ccc(NC(=S)N2CCOCC2)cc1Cl | 1 | 1 | -1 | 1 | x | i | -5 | -4
Cc1ccc2c(c1)nnn2C1CCN(C(=O)c2ccccc2F)CC1 | 12 | 15 | 1 | 2 | -20 | i | 5 | 19
CC(NC(=O)c1nn(C)c(=O)c2ccccc12)c1ccccc1 (stereo unspecified) | 1 | -15 | -5 | -1 | -2 | x | 8 | 3
Cc1ccc(CSc2nnc(SCC(=O)N/N=C/c3ccccc3OCC(=O)O)s2)cc1 | 21 | -33 | -5 | -3 | 14 | i | -4 | 20
O=C1NC2(CCCCCC2)C(=O)N1Cc1ccccc1F | -2 | -2 | -1 | 5 | x | i | 6 | -4
CNCCCCOc1ccccc1Cc1ccccc1 | 4 | x | x | x | -2 | i | x | 2
CS(=O)(=O)N(CC(=O)N1CCN(c2ccc(F)cc2)CC1)c1cccc(Cl)c1 | 5 | -17 | -4 | -1 | -5 | i | -5 | -4
CCOc1ccc2nc(NC(=O)c3ccc(OC)c(S(=O)(=O)N4CCOCC4)c3)sc2c1 | -10 | 38 | 7 | -11 | 25 | i | -16 | 22
CC(=O)NCCc1nc2cc(NC(=O)c3cccs3)ccc2n1C | -4 | 7 | 3 | 7 | x | i | -13 | -44
COC(=O)c1cnc(Nc2cccc(C(F)(F)F)c2)c([N+](=O)[O-])c1 | 10 | -14 | 9 | 3 | -2 | i | -13 | -13
COc1ccc(-c2nc3ccc(Cl)cn3c2Cc2cccc(F)c2)cc1OC | x | 15 | -4 | 0 | x | x | -11 | x
COCCCNS(=O)(=O)c1ccccc1 | -16 | 16 | 2 | 0 | 3 | i | -7 | 8
O=C(c1cccs1)N1C[C@@H](O)[C@H](n2cc(C3CC3)nn2)C[C@@H]1c1ccccc1 | x | 11 | 2 | 1 | x | x | -10 | x
CC1(C)CC(=O)C2=C(C1)NC(Nc1nc3ccccc3o1)=NC21CCCCC1 | -5 | 17 | -41 | -32 | -3 | i | -10 | -16
O=C1CCC/C1=c1\s/c(=C\c2cccnc2)c(=O)n1-c1ccccc1 | 0 | x | -10 | -6 | -13 | i | x | -12
Cc1c(NC(=O)/C(C#N)=C/c2c(Oc3ccccc3)nc3ccccn3c2=O)c(=O)n(-c2ccccc2)n1C | 1 | 35 | 1 | 6 | -6 | i | x | 3
COc1ccc(Cc2nnc(SCC(=O)Nc3ccc(N4CCOCC4)cc3)o2)cc1 | -2 | -4 | 5 | 8 | -9 | i | -14 | -4
CCOc1ccc2nc(NC(=O)CN3CCN(CC)CC3)sc2c1 | -2 | -22 | 0 | 0 | x | i | -11 | -9
COc1ccc(C(=O)Nc2cc3c4c(c2)C(C)C(=O)N4CCC3)c(OC)c1 (stereo unspecified) | x | 1 | 14 | 4 | -15 | i | -9 | x
O=c1[nH]c2cc3c(cc2cc1CN(CCCO)C(=S)NCc1ccco1)OCO3 | 5 | 3 | 1 | -1 | 7 | i | -6 | 8
Cc1cc(OC(=O)c2ccc(S(=O)(=O)N3CCCC3)cc2)c([N+](=O)[O-])c(=O)[nH]1 | -10 | -6 | 0 | -2 | -9 | i | x | -4
COc1ccccc1C/C(N)=N/OC(=O)c1cccc([N+](=O)[O-])c1C | 9 | -10 | -1 | -1 | -3 | i | x | -1
CCOc1ccccc1NS(=O)(=O)c1ccc2oc(=O)ccc2c1 | -9 | -5 | 3 | -3 | -6 | i | -8 | -1
Cc1ccc(NC(=O)CSc2ccc(-c3cccnc3)nn2)cc1Cl | -9 | -8 | 1 | -12 | -6 | x | -13 | 5
COc1ccc(-c2nnc(SC(C)C(=O)Nc3cccc(Cl)c3)o2)cc1 (stereo unspecified) | -2 | -217 | 4 | 0 | 12 | i | -12 | -5
Cc1cccc(C(=O)NCC(=O)OCC(=O)N2CCCCC2)c1 | 5 | 2 | -8 | -2 | -1 | i | x | 1
CCCOC(=O)c1ccc(NC(=O)c2cccc(S(=O)(=O)N3CCN(C(C)=O)CC3)c2)cc1 | 4 | 4 | 5 | -12 | -15 | i | 12 | 6
O=C(NCC(=O)N1CCN(S(=O)(=O)c2c(F)cccc2F)CC1)c1ccccc1F | x | 13 | 5 | 1 | x | x | -19 | x
CC1CN(C(=O)c2ccccc2C(=O)c2ncc[nH]2)CC(C)O1 (stereo unspecified) | -1 | x | 1 | -1 | x | i | 3 | -18
Nc1nc2n(n1)C(c1ccco1)CC(c1ccc(Cl)cc1)N2 (stereo unspecified) | -2 | -51 | 3 | 2 | -19 | i | -22 | 2
O=C(NC1CCCCC1)N1CCN(C2CCCCC2)CC1 | -1 | x | 4 | 2 | -14 | i | -4 | -7
CN(c1ccccc1C(=O)Nc1ccc2c(c1)OCO2)S(C)(=O)=O | 14 | -24 | -1 | 3 | x | i | 11 | 4
COc1cccc(NC(=O)CCSc2ccc(C)cc2)c1 | -2 | 1 | -1 | 1 | 2 | i | -3 | 2
Cn1nc(C(F)(F)F)c(/C=N/OC(=O)c2ccccc2Cl)c1SCc1ccc(Cl)cc1 | 8 | -32 | -5 | -5 | 10 | i | -15 | -1
CCc1ccc2nc(NC(=O)c3ccc(N4C(=O)CCC4=O)cc3)sc2c1 | 4 | -6 | 6 | 0 | 5 | i | x | -2
COc1ccc(-c2ccc(=O)n(CC(=O)NC3CCc4ccccc43)n2)cc1OC (stereo unspecified) | -10 | 12 | 5 | 6 | 0 | i | x | -2
CCc1cccc(CC)c1NC(=O)CCCSc1nc2ccccc2s1 | 1 | 37 | -4 | -6 | -9 | i | x | -10

Grouped by structure: the entries above with an aryl methoxy group.
SMILES | eIF4H FP inh | Env fusion inh | MT1-MMP act inh | MT1-MMP act inh RFP | CSC inhib | Rce1 inh | Yeast UUG start | PABP polyA inh
COc1cc(C)c(S(=O)(=O)N2CCOCC2)cc1C(C)C | -3 | x | -3 | -3 | -4 | i | 13 | -1
COc1ccc(CCNC(=O)COc2ncnc3ccccc23)cc1OC | 5 | 8 | 2 | 5 | -2 | i | -6 | 14
CCOc1ccc2nc(NC(=O)c3ccc(OC)c(S(=O)(=O)N4CCOCC4)c3)sc2c1 | -10 | 38 | 7 | -11 | 25 | i | -16 | 22
COc1ccc(-c2nc3ccc(Cl)cn3c2Cc2cccc(F)c2)cc1OC | x | 15 | -4 | 0 | x | x | -11 | x
COc1ccc(Cc2nnc(SCC(=O)Nc3ccc(N4CCOCC4)cc3)o2)cc1 | -2 | -4 | 5 | 8 | -9 | i | -14 | -4
COc1ccc(C(=O)Nc2cc3c4c(c2)C(C)C(=O)N4CCC3)c(OC)c1 (stereo unspecified) | x | 1 | 14 | 4 | -15 | i | -9 | x
COc1ccccc1C/C(N)=N/OC(=O)c1cccc([N+](=O)[O-])c1C | 9 | -10 | -1 | -1 | -3 | i | x | -1
COc1ccc(-c2nnc(SC(C)C(=O)Nc3cccc(Cl)c3)o2)cc1 (stereo unspecified) | -2 | -217 | 4 | 0 | 12 | i | -12 | -5
COc1cccc(NC(=O)CCSc2ccc(C)cc2)c1 | -2 | 1 | -1 | 1 | 2 | i | -3 | 2
COc1ccc(-c2ccc(=O)n(CC(=O)NC3CCc4ccccc43)n2)cc1OC (stereo unspecified) | -10 | 12 | 5 | 6 | 0 | i | x | -2
